STAT3 binder: STAT3 (human) binding; 0.2% of 17,000 active; Small molecule microarray, His-STAT3 binding, anti-His fluorescence; calls only; AID 624138; P40763;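 active = compounds whose four printed spots each show fluorescence over background unusually high for their array block, chance value under 7%; compounds were printed on slides so no solution concentration is given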;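 note: about 2 pmol printed per array spot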
ID4 SMM: ID4 (human) binding; P47928; small molecule microarray, Flag-ID4 binding, fluorescence F/B; calls only; 1.2% of 31,000 active;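 active = spot signal over background at p below 0.07 in all four prints; compounds were printed on slides so no solution concentration is given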;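 note: a binder raises fluorescence above local background on the spot; about 2 pmol printed per array spot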
Target sequence (P47928 whole entry, looked up): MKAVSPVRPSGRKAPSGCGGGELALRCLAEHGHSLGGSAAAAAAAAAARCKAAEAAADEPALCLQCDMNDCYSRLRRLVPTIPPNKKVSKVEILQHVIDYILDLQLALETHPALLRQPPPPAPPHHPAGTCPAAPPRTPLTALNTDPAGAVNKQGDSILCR
p53 mut binder: binds human mutant p53 on microarray. AID 624136. 0.4% of 17,000 active. calls only. small molecule microarray binding, anti-GST fluorescence;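 active = compounds whose four printed spots each glow above background more than chance allows, each with a p-value under 7%; compounds were printed on slides so no solution concentration is given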;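 note: about 2 pmol printed per array spot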
c-Myc SMM: binders of human c-Myc; P01106; calls only; 1.5% of 17,000 active; small molecule microarray, His-c-Myc binding, anti-His fluorescence; AID 624141;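 active = spot fluorescence over background with P-value below 7% in all four replicate spots, showing protein binding; compounds were printed on slides so no solution concentration is given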;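 note: score is binary with 100 for all four spots passing and 0 otherwise; about 2 pmol printed per array spot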
Target sequence (P01106 whole entry, looked up): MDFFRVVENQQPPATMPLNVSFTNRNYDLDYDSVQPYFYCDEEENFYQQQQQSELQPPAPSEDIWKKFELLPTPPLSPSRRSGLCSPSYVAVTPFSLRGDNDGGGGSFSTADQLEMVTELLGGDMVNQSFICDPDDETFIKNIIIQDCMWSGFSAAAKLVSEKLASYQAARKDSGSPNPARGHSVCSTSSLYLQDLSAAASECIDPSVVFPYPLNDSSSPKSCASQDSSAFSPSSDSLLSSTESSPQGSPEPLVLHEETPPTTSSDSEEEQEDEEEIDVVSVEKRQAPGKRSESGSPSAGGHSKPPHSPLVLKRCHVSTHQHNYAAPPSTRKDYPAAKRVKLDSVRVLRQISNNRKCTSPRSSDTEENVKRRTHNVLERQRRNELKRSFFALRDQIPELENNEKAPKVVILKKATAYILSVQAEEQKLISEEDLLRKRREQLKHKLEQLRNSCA
Calls only; i = inactive; · = not tested or not shown; + = active, no number. Not all compounds are listed; the hit share may differ from the screen's.

SMILES	STAT3 binder	ID4 SMM	p53 mut binder	c-Myc SMM
C[C@@H]1CN([C@@H](C)CO)C(=O)Cc2cc(NC(=O)Cc3ccccc3)ccc2O[C@@H]1CN(C)Cc1ccc(C(=O)O)cc1	i	i	i	i
CCn1c2ccccc2c2cc(NC(=O)CN(C)S(=O)(=O)c3ccccc3)ccc21	i	i	i	i
C[C@H]1CN([C@@H](C)CO)C(=O)Cc2cc(NS(=O)(=O)c3cccs3)ccc2O[C@@H]1CN(C)CC1CC1	i	i	i	i
C[C@@H]1CCCCO[C@H](CN(C)C(=O)Nc2ccccc2)[C@H](C)CN([C@H](C)CO)C(=O)c2cc(NC(=O)CCC(F)(F)F)ccc2O1	i	i	i	i
C[C@@H]1CCCCO[C@@H](CN(C)C(=O)c2ccncc2)[C@H](C)CN([C@@H](C)CO)C(=O)c2cc(NC(=O)Cc3ccccc3)ccc2O1	i	i	i	i
C[C@@H]1CN([C@@H](C)CO)C(=O)c2cc(NC(=O)NC3CCCCC3)ccc2O[C@H]1CN(C)S(=O)(=O)c1cccs1	i	i	i	i
O=S(=O)(c1ccc(Cl)cc1)N1CCN(CC(O)COc2ccc3ccccc3c2)CC1 (configuration not stated)	i	i	i	i
Cc1noc(C)c1NC(=O)N(C)C[C@H]1OCCCC[C@@H](C)Oc2ccc(NS(C)(=O)=O)cc2C(=O)N([C@H](C)CO)C[C@H]1C	i	i	i	i
COc1ccc(-c2cnc3c(c2)C(=O)N([C@H](C)CO)C[C@H](C)[C@H](CN(C)C(=O)NC2CCCC2)O3)cc1	i	i	i	i
O=C(CSc1nc2c(c(-c3ccccc3)n1)CCCCC2)N1N=CCC1c1ccccc1 (configuration not stated)	i	i	i	i
C=C1C(NC)CCC23CC24CCC2(C)C(C(C)N(C)C(C)=O)C(O)CC2(C)C4CCC13 (configuration not stated)	i	·	i	i
C=C1C(=O)O[C@@H]2C[C@H](C)[C@@]3(O)C[C@H](O)[C@@](C)(C[C@@H](OC(=O)C(C)C)[C@@H]12)O3	i	i	i	i
C=CC[C@@]12N=C(c3ccc(OCCCO)cc3)O[C@@H]1c1ccccc1CN(Cc1ccccc1)C2=O	i	·	i	i
C[C@@H]1CN([C@@H](C)CO)C(=O)c2cc(NC(=O)C3CC3)ccc2O[C@H]1CN(C)Cc1ccc2c(c1)OCO2	i	i	i	i
CC1=C(C(=O)Nc2ccccc2Cl)C(c2cc(Br)ccc2OCC(N)=O)NC(=S)N1 (configuration not stated)	i	i	i	i
CC(C)NC(=O)N(C)C[C@H]1OCc2cn(nn2)CCCC(=O)N([C@H](C)CO)C[C@@H]1C	i	i	i	i
C[C@H]1CN([C@@H](C)CO)C(=O)c2cccc(NS(=O)(=O)c3cn(C)cn3)c2O[C@H]1CN(C)C	i	i	i	i
Cc1noc(C)c1NC(=O)Nc1ccc2c(c1)CC(=O)N([C@@H](C)CO)C[C@@H](C)[C@H](CN(C)S(=O)(=O)c1c(C)noc1C)O2	i	·	i	i
CN(C)CCNC(=O)c1cc(-c2cccnc2)nc2c(Cl)cccc12	i	i	i	i
COC(=O)C1=CO[C@@H](O[C@@H]2O[C@H](CO)[C@@H](O)[C@H](O)[C@H]2O)[C@H]2[C@]1(O)[C@H](O)C[C@]2(C)O	i	·	i	i
CNC[C@@H]1Oc2c(NS(=O)(=O)c3cn(C)cn3)cccc2C(=O)N([C@@H](C)CO)C[C@H]1C	i	i	i	i
C[C@H]1CN([C@@H](C)CO)C(=O)c2cccc(NS(=O)(=O)c3cccs3)c2O[C@H]1CN(C)C(=O)NC1CCCCC1	i	i	i	i
CNC[C@H]1OCCCC[C@H](C)Oc2ccc(NS(=O)(=O)c3ccccc3)cc2C(=O)N([C@@H](C)CO)C[C@@H]1C	i	i	i	i
C[C@@H]1CN([C@@H](C)CO)C(=O)Cc2cc(NC(=O)Cc3cn(C)c4ccccc34)ccc2O[C@H]1CN(C)CC1CC1	i	i	i	i
C=C[C@@]1(C)CCC2C(=CCC3[C@]2(C)CCC[C@@]3(C)C(=O)O)C1 (some centres not stated)	i	i	i	i

Limited to ID4 SMM and STAT3 binder (three entries from above):
Compound	ID4 SMM	STAT3 binder
C[C@@H]1CN([C@@H](C)CO)C(=O)Cc2cc(NC(=O)Cc3ccccc3)ccc2O[C@@H]1CN(C)Cc1ccc(C(=O)O)cc1	i	i
CCn1c2ccccc2c2cc(NC(=O)CN(C)S(=O)(=O)c3ccccc3)ccc21	i	i
C[C@H]1CN([C@@H](C)CO)C(=O)Cc2cc(NS(=O)(=O)c3cccs3)ccc2O[C@@H]1CN(C)CC1CC1	i	i

(cont.)
SMILES	STAT3 binder	ID4 SMM	p53 mut binder	c-Myc SMM
N#Cc1cc2c(OCC(O)CN3CCN(C(c4ccccc4)c4ccccc4)CC3)cccc2[nH]1 (configuration not stated)	i	i	i	i
C[C@H]1CCCCO[C@@H](CN(C)C(=O)CCCN(C)C)[C@@H](C)CN([C@@H](C)CO)C(=O)c2cc(NC(=O)Cc3ccccc3)ccc2O1	i	i	i	i
Cc1noc(C)c1S(=O)(=O)N(C)C[C@H]1Oc2ccc(N(C)C)cc2CC(=O)N([C@H](C)CO)C[C@H]1C	i	i	i	i
C[C@@H]1CN([C@H](C)CO)C(=O)Cc2cc(NC(=O)C3CC3)ccc2O[C@@H]1CN(C)Cc1ccc(Cl)c(Cl)c1	i	i	i	i
C[C@H]1C=C(C(=O)N2CCN(Cc3ccc4c(c3)OCO4)CC2)O[C@@H](OCCCCO)C1	i	·	i	i
C=CCOC(=O)[C@H]1[C@@H]2C(=O)O[C@@H](c3ccccc3)[C@@H](c3ccccc3)N2[C@@H](c2ccc(OCCOC(=O)[C@@H]3C[C@@H]4C(=O)N5CCC[C@H]5C(=O)N4[C@@H]3c3cccc(OCCO)c3)cc2)[C@]12C(=O)Nc1ccccc12	i	·	i	i
Cc1ccc(O)c(NC(=S)NC(=O)c2ccc(-c3ccccc3[N+](=O)[O-])o2)c1	i	i	i	i
COc1ccc(S(=O)(=O)Nc2cccc3c2O[C@@H](CN(C)Cc2ccc(C(=O)O)cc2)[C@@H](C)CN([C@H](C)CO)C3=O)cc1	i	i	i	i
O=C(O)[C@@]1(CCS(=O)(=O)c2ccccc2)COC(c2ccc(OCCCO)cc2)=N1	i	i	i	i
Cc1noc(C)c1NC(=O)Nc1ccc2c(c1)CC(=O)N([C@H](C)CO)C[C@H](C)[C@@H](CN(C)C(=O)Nc1cccc3ccccc13)O2	i	i	i	i
COc1ccc(NC(=O)N(C)C[C@H]2Oc3c(NS(=O)(=O)c4cccs4)cccc3C(=O)N([C@@H](C)CO)C[C@H]2C)cc1	i	i	i	i
C[C@@H]1CN([C@H](C)CO)C(=O)c2cccc(NC(=O)c3ccc(-c4nccs4)cc3)c2O[C@H]1CN(C)C(=O)Nc1ccccc1	i	i	i	i
COC(=O)C1=COC(O[C@@H]2O[C@H](CO)[C@@H](OC(=O)/C=C/c3ccc(O)cc3)[C@H](O)[C@H]2O)[C@H]2[C@@H]1[C@H](O)C[C@]2(C)OC(C)=O (some centres not stated)	i	·	i	i
O=C1C(Nc2ccccc2)=CC(=O)c2ncccc21	i	·	i	i
Cc1noc(C)c1NC(=O)N(C)C[C@H]1Oc2ccc(NC(=O)Cn3cnnn3)cc2C(=O)N([C@H](C)CO)C[C@@H]1C	i	i	i	i
C[C@@H]1CN([C@@H](C)CO)C(=O)c2cc(NC(=O)Nc3ccc(F)cc3)ccc2O[C@@H](C)CCCCO[C@@H]1CN(C)S(=O)(=O)c1ccccc1	i	·	i	i
C[C@H]1CN([C@@H](C)CO)C(=O)Cc2cc(NC(=O)CCN3CCOCC3)ccc2O[C@@H]1CN(C)S(=O)(=O)c1ccccc1	i	i	i	i
COc1ccc(S(=O)(=O)Nc2ccc3c(c2)CC(=O)N([C@H](C)CO)C[C@H](C)[C@H](CN(C)C(=O)Nc2ccc(F)cc2)O3)cc1	i	·	i	i
Cc1noc(C)c1S(=O)(=O)Nc1cccc2c1O[C@@H](CN(C)Cc1ccc(Cl)c(Cl)c1)[C@@H](C)CN([C@H](C)CO)C2=O	i	i	i	i
C[C@H](CO)N1C[C@H](C)[C@H](CN(C)C)Oc2ccc(N(C)C)cc2C1=O	i	i	i	i
O=C(NC(Cc1cc(=O)[nH]c2ccccc12)C(=O)O)c1ccc(Cl)cc1 (configuration not stated)	i	i	i	i
C[C@H](CO)N1C[C@H](C)[C@H](CN(C)Cc2ccc(C(=O)O)cc2)Oc2ccc(NC(=O)CCCN(C)C)cc2C1=O	i	i	i	i
CC(=O)Nc1ccc(NC(=O)CN(c2cc(C(F)(F)F)ccc2Cl)S(C)(=O)=O)cc1	i	i	i	i
COc1ccc(S(=O)(=O)N(C)C[C@H]2Oc3ccc(NC(=O)Nc4ccc(C(F)(F)F)cc4)cc3CC(=O)N([C@@H](C)CO)C[C@@H]2C)cc1	i	i	i	i
CC(=O)Nc1ccccc1NC(=O)COc1cc(C)c(Br)c(C)c1	i	i	i	i

Ordered by count of non-hydrogen atoms (rising): 3 of the compounds above.
SMILES	STAT3 binder	ID4 SMM	p53 mut binder	c-Myc SMM
N#Cc1cc2c(OCC(O)CN3CCN(C(c4ccccc4)c4ccccc4)CC3)cccc2[nH]1 (configuration not stated)	i	i	i	i
C[C@@H]1CN([C@H](C)CO)C(=O)Cc2cc(NC(=O)C3CC3)ccc2O[C@@H]1CN(C)Cc1ccc(Cl)c(Cl)c1	i	i	i	i
COc1ccc(NC(=O)N(C)C[C@H]2Oc3c(NS(=O)(=O)c4cccs4)cccc3C(=O)N([C@@H](C)CO)C[C@H]2C)cc1	i	i	i	i

Whole records, looked up by structure. Order of values: STAT3 binder	ID4 SMM	p53 mut binder	c-Myc SMM
CCn1c2ccccc2c2cc(NC(=O)CN(C)S(=O)(=O)c3ccccc3)ccc21 in the list: i	i	i	i
CNC[C@@H]1Oc2c(NS(=O)(=O)c3cn(C)cn3)cccc2C(=O)N([C@@H](C)CO)C[C@H]1C in the list: i	i	i	i

The list goes on.
SMILES	STAT3 binder	ID4 SMM	p53 mut binder	c-Myc SMM
COc1cc(C(=O)Nc2cc(-c3nc4ncccc4o3)ccc2C)ccc1OCc1ccc(Cl)cc1	i	i	i	i
Nc1ccccc1S(N)(=O)=O	i	·	i	i
C[C@@H]1CCCCO[C@H](CN(C)Cc2ccc3c(c2)OCO3)[C@H](C)CN([C@@H](C)CO)C(=O)c2cc(N(C)C)ccc2O1	i	·	i	i
CC(=O)c1cccc(NC(=O)C(C)N2C(=O)c3ccccc3C2=O)c1 (configuration not stated)	i	i	i	i
COC(=O)C(CC#Cc1ccc2c(c1)[C@]1(C(=O)N2)[C@H](C(=O)N2CCCCCCC2)[C@H]2C(=O)O[C@H](c3ccccc3)[C@H](c3ccccc3)N2[C@@H]1c1ccc(O)cc1)C(=O)OC	i	i	i	i
Cc1ccc(S(=O)(=O)NCC(=O)Nc2ccc(I)cc2)cc1	i	i	i	i
COc1ccc(N(C(=O)c2cccnc2)S(=O)(=O)c2ccccc2)cc1	i	i	i	i
COc1ccc(CN(C)C[C@H]2Oc3ccc(NS(=O)(=O)c4ccc(OC)cc4)cc3CC(=O)N([C@@H](C)CO)C[C@@H]2C)cc1	i	i	i	i
C#CCNC(=O)C1=C[C@@H](c2ccc(Br)cc2)C[C@@H](OCc2ccc(CO)cc2)O1	i	i	i	i
CSCC(NS(=O)(=O)c1ccc(Br)cc1)C(=O)O (configuration not stated)	i	i	i	+
Cc1ccc(OC(=O)N(C)C[C@@H]2OCc3cn(nn3)CCCC(=O)N([C@H](C)CO)C[C@@H]2C)cc1	i	i	i	i
NCCNC(=O)c1ccc(Cl)cc1	i	i	i	i
N#CCCSCc1ccc2oc(C(=O)O)cc2c1	i	i	i	+
Cc1noc(C)c1S(=O)(=O)Nc1ccc2c(c1)CC(=O)N([C@H](C)CO)C[C@H](C)[C@H](CN(C)Cc1ccc(-c3ccccc3)cc1)O2	i	i	i	i
COc1ccc(CCNC(=O)c2cc3cc(F)ccc3nc2C)cc1OC	i	i	i	i
O=C1O[C@H](c2ccccc2)[C@H](c2ccccc2)N2[C@H]1[C@@H](C(=O)NC[C@H](O)c1ccccc1)[C@]1(C(=O)Nc3ccccc31)[C@H]2c1ccc(O)cc1	i	i	i	i
CCOc1cc(CO)c(Br)cc1OCC(=O)O	i	i	i	+
COc1cccc(NC(=O)CSc2nnc(-c3ccc(Cl)cc3)n2-c2cccc(C)c2)c1	i	i	i	i
CC(=O)OC1/C=C(/C(=O)O)CC/C=C(/C)C(=O)/C=C\C1(C)C (configuration not stated)	i	·	i	i
Cc1ccccc1Cn1c(NCc2ccco2)nc2c1c(=O)n(C)c(=O)n2C	i	i	i	i
C[C@@H]1CN([C@@H](C)CO)C(=O)Cc2cc(N(C)C)ccc2O[C@H]1CN(C)S(=O)(=O)c1ccccc1	i	i	i	i
CC1=CC(=O)OC1(O)CCC(C)CC(=O)O (configuration not stated)	i	i	i	i
O=C(Nc1ccccc1)c1ccc(S(=O)(=O)c2cccc(S(=O)(=O)N3CCOCC3)c2)cc1	i	i	i	i
C[C@@H]1CCCCO[C@H](CN(C)C(=O)Nc2ccccc2)[C@H](C)CN([C@H](C)CO)C(=O)c2cc(NC(=O)Nc3ccccc3)ccc2O1	i	i	i	i
C[C@H]1CN([C@@H](C)CO)C(=O)c2cc(N(C)C)ccc2O[C@@H]1CN(C)Cc1ccccc1	i	i	i	i
COc1ccc(OC)c(NC(=O)NCc2cnn(C)c2)c1	i	i	i	i
C[C@@H]1CN([C@H](C)CO)C(=O)c2cccc(NS(=O)(=O)c3ccc(Cl)cc3)c2O[C@H]1CN(C)Cc1ccncc1	i	i	i	i
COc1ccccc1NC(=O)CSC1=NCCS1	i	i	i	i
CC(=O)Nc1nc2ccccc2n1CCN1CCOCC1	i	i	i	i

Screening data as filed in PubChem BioAssay.
